# Screening data from PubChem BioAssay.
# TRPML1 inh: human mucolipin-1 channel inhibition. TRPML1-inducible cells, Ca2+ dye fluorescence, FDSS; stronger effect = lower value; inhibition of EC80 agonist-evoked calcium signal. activity change, negative = inhibition, % (test concentration not listed). hit rate 0.02% among 390,000. Q9GZU1; in the data active means activity change below about -50%; inconclusive means about -30% to -50%; inactive means above about -30%;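 note: stimulus is agonist 54-4 at its EC80 concentration; % is set by controls: 0 for no effect and ±100 for the full control effect; compound concentration not given in the record; the text of the record puts the active cut at -80%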
#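 TRPML1-DL cells, Tet-induced overnight (~16 h, 37 °C) at 1,500 cells/well, were loaded with Ca8 no-wash dye plus quencher for 45-90 min at room temperature. Compounds were pinned during FDSS kinetic reading; agonist 54-4 at EC80 (4 uM final) then added.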
# PINK1 modulator: modulators of PINK1 expression; hit rate 0.2% among 410,000; PINK1 immunofluorescence, high-content cytometry, 24 h; Potency, µM (doses to about 76.6 µM), for the others: at the highest dose activation (PINK1 increase), hits mostly activators; active = well fitted activation curve with a large enough effect; inconclusive = small, poorly fitted or top-dose-only effect; inactive = flat fitted curve, though single readings scatter; cell line not stated here;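 note: potency is the fitted concentration of half-maximal effect; % of control where 0% means no effect; nearly all actives have a fitted effect of over 65% in size; a mitochondrial uncoupler was the plate control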
#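 Stable cell line, 250 cells/well, 12 h attachment; compounds pinned at 5 concentrations, 24 h; CCCP control. Fixed with nuclear dye, primary antibodies 12 h at 10 degrees C, secondary plus cell stain; laser-scanning cytometer read.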
# Menin MLL FP FL: displaces fluorescein MLL peptide from human menin | 290,000 tested, under 10 active | AID 1766 | FP activity change, % at 61.4 µM | Fluorescence polarization, fluorescein-MLL peptide displacement from menin; inconclusive = falling polarisation curve, or a change in total fluorescence; inactive = total fluorescence flat and polarisation flat or rising; no compound was filed as active; the % refers to the polarisation; negative = inhibition;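 note: % of control where 0% means no effect; inhibitors lower the polarisation; unlabelled MLL peptide was the positive control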
# TRPV1 PAM: potentiators of human vanilloid receptor 1 (TRPV1). TRPV1-expressing cells, Fluo-8 calcium influx, capsaicin EC20 potentiation; host cell line not named in the record; control for the full effect not named in the record. potentiation, % at 8.33 µM. hit rate 0.02% among 320,000; active means potentiation above 80%; inconclusive means 30% to 80%; inactive means below 30%; note: 0% is about no effect
# Target sequence (Q8NER1 whole entry, looked up): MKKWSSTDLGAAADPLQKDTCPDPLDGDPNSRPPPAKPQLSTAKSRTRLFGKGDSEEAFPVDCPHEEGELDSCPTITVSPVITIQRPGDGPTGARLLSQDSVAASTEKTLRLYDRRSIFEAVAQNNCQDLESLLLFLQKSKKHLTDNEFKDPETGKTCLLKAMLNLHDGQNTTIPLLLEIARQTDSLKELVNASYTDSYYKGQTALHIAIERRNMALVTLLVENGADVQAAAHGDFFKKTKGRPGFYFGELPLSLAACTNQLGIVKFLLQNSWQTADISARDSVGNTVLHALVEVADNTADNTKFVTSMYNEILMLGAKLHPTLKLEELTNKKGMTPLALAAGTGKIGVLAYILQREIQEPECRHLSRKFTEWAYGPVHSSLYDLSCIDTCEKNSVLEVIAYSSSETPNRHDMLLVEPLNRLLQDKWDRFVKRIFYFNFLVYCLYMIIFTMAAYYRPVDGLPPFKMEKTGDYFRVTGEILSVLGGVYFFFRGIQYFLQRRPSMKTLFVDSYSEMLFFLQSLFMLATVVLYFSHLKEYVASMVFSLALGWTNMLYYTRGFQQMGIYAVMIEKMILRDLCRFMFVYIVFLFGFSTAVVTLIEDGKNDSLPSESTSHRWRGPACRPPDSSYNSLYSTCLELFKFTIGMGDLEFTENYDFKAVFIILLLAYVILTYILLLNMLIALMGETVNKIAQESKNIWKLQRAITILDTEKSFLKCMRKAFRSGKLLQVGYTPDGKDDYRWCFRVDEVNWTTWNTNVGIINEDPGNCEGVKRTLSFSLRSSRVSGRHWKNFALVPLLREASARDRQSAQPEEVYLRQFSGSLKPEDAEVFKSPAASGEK
#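 Fluo-8 calcium influx in TRPV1-expressing cells, kinetic read (ex 480/em 520 nm). Compound added and read 3 min for agonist activity, followed by capsaicin at EC20 final and 2 min further read for enhancement.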
# Sfp inh: Sfp phosphopantetheinyl transferase inhibition | AID 1490 | hit rate 3.5% among 310,000 | Biochemical Sfp PPTase activity, qHTS | Q9F4F7 | Potency, µM, for inactives: max response, negative = inhibition, most hits filed as inhibitors; active = well fitted inhibition curve with a large enough effect; inconclusive = small, poorly fitted or top-dose-only effect, or another doubt; inactive = no such curve, though single readings can be large or run the other way;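 note: the enzyme is Sfp with the accession as filed and its product quenches rhodamine fluorescence; potency is the fitted concentration of half-maximal effect; 0% = enzyme reaction without inhibitor and -100% = no enzyme wells; top concentration of the series not given in the record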
#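 Sfp 15 nM + cpd, 15 min RT; start w/ rhodamine-CoA 5 uM, BHQ-2-YbbR 12.5 uM (final); 50 mM Hepes pH 7.6, 10 mM MgCl2, 0.01% NP-40, 0.01% BSA; read 525/598 nm at 0 and 30 min.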
# TRPML1 agonist: agonists of human TRPML1 channel; TRPML1-expressing cells, Ca2+ dye fluorescence, FDSS; host cell line not named in the record; reference of the full effect not given here; activation, % (concentration not given with the values); hit rate 0.12% among 410,000; AID 624414; in the data active = activation above about 50%; inconclusive = about 30% to 50%; inactive = below about 30%; note: 0% is about no effect; the text of the record puts the active cut at 80%
#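 Tetracycline-induced TRPML1-DL cells are seeded and incubated overnight before loading with a no-wash Ca2+ dye and quencher. Agonist activity is taken from the 110 s fluorescence read following compound pin-transfer on an FDSS, before EC80 54-4 challenge.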
# ClpP mod: qHTS Assay for Activators of ClpP | Potency, µM (doses to about 57.5 µM), for inactives: top-dose activity change, negative = active | hit rate 1.9% among 340,000 | AID 651965, 2013 | purified B. subtilis ClpP, FRET peptide cleavage, 20 min; active = well fitted falling curve with a large enough effect; inconclusive = small, poorly fitted or top-dose-only effect; inactive = no such curve, though single readings can be large or run the other way; note: potency is the fitted concentration of half-maximal effect; the source files actives as falling curves though it sought activators and does not explain the sign; nearly all actives have a fitted effect of over 65% in size; many hits overshoot -100%
# Target sequence (P80244 whole entry, looked up): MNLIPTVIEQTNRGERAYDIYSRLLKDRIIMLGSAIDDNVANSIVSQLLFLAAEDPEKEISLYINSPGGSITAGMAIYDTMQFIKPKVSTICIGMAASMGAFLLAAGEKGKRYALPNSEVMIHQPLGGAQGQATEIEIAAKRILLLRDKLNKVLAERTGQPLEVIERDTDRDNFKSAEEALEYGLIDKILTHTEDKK
#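 FRET quenching reversal measured ClpP activation: 10 microg/mL B. subtilis ClpP at pH 8 with the FRET-FV decapeptide, read at 430 nm after 320 nm excitation. The 20-min minus 0-min signal was scaled between DMSO/no-enzyme wells and ADEP (5.8 microM final).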
# An asterisk follows results filed as active; ? = inconclusive; nt = not tested or not shown; [ ] = remark or other dose. Random draw from the library; 4.4% or so of the library scored in one or more.
SMILES,TRPML1 inh,PINK1 modulator,Menin MLL FP FL,TRPV1 PAM,Sfp inh,TRPML1 agonist,ClpP mod
CCCCNC(=O)C1Cc2cc(S(=O)(=O)N3CCCC3)ccc2N1C(C)=O (stereo not given),-3,0.5%,nt,-3,7%,0.4,-0.5%
O=C(CCC(=O)N1CCOc2ccccc21)NC1CCN(Cc2ccccc2)CC1,-1,0.2%,0.8,-15,9%,-0.3,-1.9%
Cc1cccc(N2CCN(c3nnnn3-c3ccccc3)CC2C)c1 (stereo not given),-10,-2.1%,-2.0,-14,3%,4.9,-1.9%
CC(C)C(=O)Nc1sc2c(c1C(N)=O)CCN(Cc1ccccc1)C2,12,-1.3%,-3.4,17,0%,6.7,-3.8%
CC1CCN(C(=O)COc2ccc(S(=O)(=O)N3CCCC3)cc2)CC1,6,-0.2%,0.0,-16,4%,0.4,nt
COC(=O)[C@@]1(Cc2ccc(F)cc2)[C@H]2c3cc(C(=O)N4CCCC4)n(CCN4CCNC4=O)c3C[C@H]2CN1C(=O)c1ccccc1,nt,1.2%,nt,nt,nt,-0.1,-3.7%
COc1ccc(NC(=O)NNC(=O)c2cc3occc3n2C)c(OC)c1,0,-1.6%,4.9,25,4%,1.0,2.7%
O=C(NNC1CC(=O)N(c2ccc(Cl)cc2)C1=O)c1ccccn1 (stereo not given),8,0.0%,-4.9,5,-11%,0.8,-0.4%
CC(C)CC(C(=O)N1CCc2ccccc2C1)N1C(=O)c2ccccc2C1=O (stereo not given),21,1.2%,0.6,-6,10%,0.0,-2.3%
O=C(COc1ccc(Cl)cc1)NCc1nnc(SCC(=O)N2CCCc3ccccc32)o1,-5,-0.2%,0.6,26,5%,0.7,-0.4%
CCc1cccc(C)c1NC(=O)C1CCCN1C(=O)NCc1ccccc1 (stereo not given),15,0.5%,-4.3,3,8%,-0.9,-82%
CN1C(=O)[C@H]2[C@@H](C3CC3)N3C(=O)CN(CCO)C(=O)[C@@]3(Cc3ccccc3)[C@H]2C1=O,18,3.7%,-2.4,-20,14%,0.1,?
COc1ccc(Br)cc1C(=O)CCC(=O)OCC(=O)Nc1cc(C(N)=O)cc(C(N)=O)c1,18,0.3%,nt,14,nt,2.0,nt
Cc1oc(-c2ccccc2F)nc1CS(=O)CC(=O)NC1CC1 (stereo not given),14,-1.2%,-1.2,-9,20%,-0.5,-7.4%
CS(=O)(=O)c1ccc(N2CCOCC2)c(S(C)(=O)=O)c1,2,6.9%[38.3 µM],0.3,-4,0%,0.4,-0.6%
Cc1nn(-c2ccccc2)c2nc(C(F)(F)F)[nH]c(=O)c12,-2,2.8%,3.7,9,-5%,1.2,-25%
O=C(CC1(C(=O)O)CCCC1)N1CCOCC1,0,nt,0.5,0,10%,0.0,-1.1%
Cc1ccc(NC(=O)COc2ccc3c(c2)OCO3)c(Cl)c1,18,5.9%,nt,25,nt,10,-2.9%
CC(C)(O)C#Cc1ccc(CN2CCN(Cc3ccsc3)C(CCO)C2)cc1 (stereo not given),15,-0.9%,-6.3,-1,15%,0.2,nt
CC(C)(CNC(=O)c1ccc(-c2ccccc2Cl)o1)N1CCOCC1,-6,-1.5%,nt,-21,nt,0.1,-0.8%
O=C(c1ccc2c3c(cccc13)CC2)C1CCCN(C(=O)c2cc[n+]([O-])cc2)C1 (stereo not given),8,1.4%,1.8,-6,6%,-0.1,3.6%
COc1ccc(C(=O)Oc2ccc(F)cc2C(=O)/C=C/c2ccc(OC)c(OC)c2)cc1,25,-3.2%,5.6,-2,1%,-0.1,0.9%
O=C(NCc1ccccn1)[C@]1(C(F)(F)F)C[C@H](CCc2ccccc2)CCCO1,5,nt,0.6,nt,-24%,0.7,nt
C[C@H]1CN([C@@H](C)CO)C(=O)CCCn2cc(nn2)CO[C@@H]1CN(C)C(=O)Nc1ccc(F)cc1,10,-1.8%,nt,nt,nt,0.9,-2.9%

# Three structures out of the list, arranged by count of non-hydrogen atoms, high to low.
SMILES,TRPML1 inh,PINK1 modulator,Menin MLL FP FL,TRPV1 PAM,Sfp inh,TRPML1 agonist,ClpP mod
O=C(NCc1ccccn1)[C@]1(C(F)(F)F)C[C@H](CCc2ccccc2)CCCO1,5,nt,0.6,nt,-24%,0.7,nt
CC(C)(O)C#Cc1ccc(CN2CCN(Cc3ccsc3)C(CCO)C2)cc1 (stereo not given),15,-0.9%,-6.3,-1,15%,0.2,nt
Cc1oc(-c2ccccc2F)nc1CS(=O)CC(=O)NC1CC1 (stereo not given),14,-1.2%,-1.2,-9,20%,-0.5,-7.4%

# More records follow.
SMILES,TRPML1 inh,PINK1 modulator,Menin MLL FP FL,TRPV1 PAM,Sfp inh,TRPML1 agonist,ClpP mod
O=C(Nc1ccccc1C(=O)N/N=C/c1ccc(O)cc1)c1ccccc1,21,1.1%,3.4,-1,0%,-0.5,-2.6%
Cc1ccc(-c2nnn(CCC(=O)NC3CCCC3)n2)cc1,12,-2.8%[38.3 µM],1.5,6,-6%,0.2,-0.9%
O=C(COC(=O)c1ccccc1F)c1ccc(-n2nncc2-c2ccco2)cc1,-18,1.9%,-0.4,-5,-16%,1.7,-5.0%
N#Cc1cccc(-c2cncnc2NCCc2cnc[nH]2)c1,nt,-0.7%,-8.8,nt,35%[activator],nt,nt
Cc1sc(NC(=O)CCC(=O)O)c(C#N)c1C,-14,2.7%,-1.2,-28,13%,0.2,2.0%
Cc1cc(NC(=O)Cn2nc3c(cc2=O)CCCC3)ccc1Br,5,1.4%,2.2,-4,10%,-0.2,0.4%
O=C(c1cc(C2CCCCN2C(=O)OCCF)on1)N1CCOCC1 (stereo not given),nt,-0.3%,nt,nt,nt,-0.3,0.3%
Cc1nc2ccc(C(=O)NCCCn3ccnc3)cn2c1N(C)CC1CCCCC1,89,0.0%,nt,nt,nt,3.4,0.6%
O=c1oc2c3c(nn2c2ccccc12)CCCC3,-1,3.1%[38.3 µM],-1.5,-8,-20%,0.8,19%
CCOC(=O)c1c(CN2CCN(C)CC2)n(-c2ccccc2)c2cc(Br)c(O)cc12,44,-1.3%,-8.6,-12,-23%,1.8,1.8%
COc1ccc(N2CCN(C(=O)CCc3nnc4ccc(N5CCCC5)nn34)CC2)cc1,-4,-0.4%,nt,?,14%,3.7,3.1%
COc1ccccc1Cc1c(-c2ccc(C)cc2)nc2ccc(Cl)cn12,43,6.5%,nt,nt,nt,1.0,-20%
COc1ccc(CCNC(=O)c2ccc(F)c(S(=O)(=O)N3CCCCC3)c2)cc1,2,3.6%,nt,nt,nt,1.1,1.0%
Cc1cc(C)cc(N2C(=O)CC(N(C(=O)c3ccco3)c3cc(C)cc(C)c3)C2=O)c1 (stereo not given),-2,2.0%[38.3 µM],7.2,-1,-6%,-0.4,-0.6%
COc1cccc(-n2nnnc2SCC(=O)N2CCCc3ccccc32)c1,-1,-4.4%[38.3 µM],-1.1,8,9%,-0.6,-2.2%
CCCCn1cnc2c(SCc3ccccc3Cl)nc(N)nc21,-3,17%,nt,nt,nt,-1.1,nt
CC(C)OCC(O)CSc1ccccn1 (stereo not given),-8,-2.7%[38.3 µM],4.9,-9,-19%,0.5,-1.1%
COc1ccc(Oc2ccc(S(=O)(=O)N3CCCCC3)cc2S(=O)(=O)N2CCCCC2)cc1,8,1.0%,2.8,-1,3%,-0.5,nt
O=C(NC1CCC(O)CC1)c1ccc(Br)o1 (stereo not given),-9,1.5%,nt,nt,nt,-0.6,0.9%
CCOC(=O)CCCC(=O)N1CCOCCOCCN(C(=O)CCCC(=O)OCC)CCOCCOCC1,18,1.7%,-0.8,-17,7%,0.1,-2.7%
COc1cc(C(=O)OCC(C)=O)cc(NC(=O)c2ccco2)c1OC,-3,0.6%,3.2,3,0%,0.6,-0.3%
C[C@@H]1CC=C[C@H]2[C@H]1C(=O)N(Cc1ccccc1)[C@H]2c1ccc(/C=C/c2ccccc2)cc1F,72,1.8%,6.0,29,-10%,0.7,4.3%
O=C(Nc1cccc2cccnc12)c1ccccc1,18,-0.8%,nt,21,nt,1.5,nt
CC(C)(C)NC(=O)c1cccc2c1C(=O)c1ccccc1-2,0,0.9%,-1.9,-18,14%,3.6,nt
CCCC(=O)NCCCc1nc2ccccc2n1C,-5,1.3%,2.9,8,19%,0.0,1.3%
O=S(=O)(NCc1ccccc1)c1ccc(S(=O)(=O)N2CCCC2)cc1,1,3.7%,17,-10,-14%,-0.1,nt
CCNc1ncc2ncc(=O)n(C[C@H]3CCCO3)c2n1,nt,-0.6%,-7.4,nt,18%,nt,nt
O=[N+]([O-])c1cccc(S(=O)(=O)Nc2nc3ccccc3nc2Nc2cccc(S(=O)(=O)N3CCCCC3)c2)c1,3,?,-0.8,10,-29%,0.3,-1.1%
COc1ccc(OC)c(CN2C(=O)c3ccccc3C2c2nnnn2C2CCCC2)c1 (stereo not given),nt,1.4%,nt,nt,nt,-0.1,0.0%
COc1cc(Cn2c3ccc(NC(=O)CC(C)(C)C)cc3c(=O)n2C)ccc1F,2,0.4%,nt,nt,nt,0.3,4.9%
OC(CN1CCNCC1)Cn1c2ccccc2c2ccccc21 (stereo not given),-19,1.9%,-2.3,26,0%,0.4,-16%
COc1ccc(NC(C)=O)cc1S(=O)(=O)NC(Cc1ccccc1)C(=O)O (stereo not given),-17,0.1%,0.8,19,6%,-0.4,-2.2%
Cc1cccc(NC(=S)NC(=O)Cc2ccccc2)c1C,-22,2.1%,0.8,8,-6%,?,nt
O=C(CO/N=C/c1cccc([N+](=O)[O-])c1)Nc1ccc2ccccc2c1,12,-0.8%,0.4,14,?,-0.5,-1.9%
NCCC1CCCC(CCN)N1 (stereo not given),3,0.8%,-2.0,8,nt,-0.8,-0.5%
COc1cc2nc(SCc3ccc(F)cc3)n3nc(CCn4c(C)nc5ccccc54)nc3c2cc1OC,5,2.7%,nt,nt,nt,-0.2,-1.2%
O=C(COC(=O)c1cc(F)cc(F)c1)Nc1cccnc1Cl,-6,-0.3%,-2.9,-2,-6%,10,1.3%
CCSc1ccccc1C(=O)Nc1ccc(S(=O)(=O)NC(C)=O)cc1,23,-1.4%,6.4,5,25µM*,-0.2,nt
N#Cc1c(N)nc2c(c1-c1ccco1)CCCCC2,29,2.0%[38.3 µM],nt,nt,nt,0.7,-20%
